Screening data as filed in PubChem.
Sa RN4220 lethal: growth inhibition of S. aureus RN4220, primary screen, OD600 | inhibition, % (test concentration not listed) | AID 1259311, 2017 | 16 h | hit rate 0.33% among 330,000;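 active = z-score of -3 or lower and OD600 up to 0.18 on both plates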;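 note: plate controls were untreated cells for no effect and reference antibiotic for full effect; stock transfer was 100 nL into about 80 µL; one replicate is shown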
Sa ugtP lethal: growth inhibition of ugtP-null S. aureus, primary screen, RN4220 ugtP deletion, OD600; AID 1259309, 2017; growth inhibition, % (no concentration beside the values); hit rate 0.54% among 330,000; 16 h; some inactives read as strong as hits;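 active = z-score under -3 and OD600 up to 0.15 on both plates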;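 note: plate controls were untreated wells for no effect and antibiotic for full effect; wells of about 80 µL received 100 nL stock; the first replicate is given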
BJeLR viability: MLPCN primary cell-based screen for lethality selective to Ras in HRASV12 cells; hit rate 0.17% among 300,000; inhibition, % (concentration not given with the values); BJeLR (HRASV12) viability, CellTiter-Glo ATP luminescence, 48 h; reference of the scale not given here;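 active = replicate mean above 50%; inconclusive = above 50% but judged a plate artefact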;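 note: 50 nL library stock added to about 25 µL; numbers are from one replicate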
Autofluor counter: flagged as autofluorescent in microsphere protease counterscreen; hit rate 3.1% among 360,000; compound autofluorescence counterscreen, microsphere flow cytometry; active compounds read high; fluorescence intensity (test concentration not listed);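 active = at least 3 SD above the mean of all compounds, about 16000 in these data; inconclusive = too few beads counted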;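 note: 100 nL of 1 mM stock went into each well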
Mtb hypoxia inh: PubChem AID 1159583. M. tuberculosis hypoxia-regulated fluorescent reporter, fluorescence. hit rate 0.1% among 300,000. fluorescence inhibition, % (no concentration beside the values);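 active = 35 to 45% if threefold the growth effect, above 45% if 1.5-fold the growth effect; inactive = the rest, general growth blockers included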;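 note: wells of about 50 µL received 100 nL stock; 0% = vehicle wells and 100% = reference inhibitor wells; whole bacteria with a GFP reporter of the hypoxia response; strong numbers were not always called active; many hits fall short of the cut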
PrP 5UTR inh: inhibition of PrP 5' UTR reporter expression; cell-based PrP 5' UTR mRNA reporter, plate reader; inhibition, % (test concentration not listed); hit rate 0.35% among 340,000;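 active = every replicate at 50% or more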;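 note: 0 = median of the neutral control wells; tested in H4 reporter cells; numbers are from one replicate; inactives centre near -14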
Mtb hypoxia inh growth: recorded beside Mtb hypoxia inh, whose call it bears; growth inhibition, %; measured here: M. tuberculosis growth (absorbance);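 0% = vehicle and 100% = reference antibiotic; read after six days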
Starred values were filed as active, the others as inactive; ? = inconclusive; . = not tested or not shown.

nr	Compound	Sa RN4220 lethal	Sa ugtP lethal	BJeLR viability	Autofluor counter	Mtb hypoxia inh	Mtb hypoxia inh growth	PrP 5UTR inh
1	O=C(Cc1cccc(NC(=O)C2CCCN(C(=O)C3CC3)C2)c1)Nc1cccc(C(=O)N2CCCCC2)c1 (stereo unspecified)	2.4	0	.	2972	-4	-9	-1
2	O=C(CSc1nc(=O)n2cc(Cl)ccc2n1)Nc1ccc2c(c1)OCO2	3.5	2	17	?	1	-2	-18
3	CC(SCc1ccccc1)C(=O)Nc1ccc(F)cc1 (stereo unspecified)	7.5	4	0	3330	10	4	-19
4	O=C(/C=C/c1ccc(Cl)cc1)c1cccnc1	7.2	3	-3	2618	.	.	-1
5	C[N+]1(CC2COC3(CCCCC3)O2)CCCCC1 (stereo unspecified)	3.7	5	1	3925	15	9	-12
6	Cc1ccc(NC(=S)N2CCN(Cc3ccccc3)CC2)c(C)c1	6.9	2	-21	1982	15	4	5
7	O=C(Cc1ccccc1)NN=Cc1ccc(-c2ccc([N+](=O)[O-])cc2)o1	4.7	-7	.	.	17	10	.
8	O=C(CCN1CCOCC1)Nc1cc(C(=O)Nc2ccc(Cl)cc2)ccc1N1CC2CC(C1)c1cccc(=O)n1C2 (stereo unspecified)	-2.8	3	5	5239	-1	6	-5
9	Cc1nn(CC(=O)NCC2CCCO2)c(=O)c2cc3ccccc3n12 (stereo unspecified)	6.2	11	9	4479	6	1	1
10	CCCCC(=O)Nc1nnc(S(=O)(=O)N2CCCCCC2)s1	5.3	-2	1	6147	10	0	-16
11	O=C(NN=Cc1cc(Cl)ccc1O)C(=O)Nc1ccccc1OC(F)(F)C(F)F	2.7	60	.	.	1	-2	.
12	CCCn1c(/N=C/c2c[nH]c3ccccc23)nc2ccccc21	.	.	-3	10135	.	.	-49
13	C=CCC(C(=O)OC)(C(=O)OC)c1ccc([N+](=O)[O-])cn1	-1.1	-6	2	22956*	0	9	-11
14	Cc1cccc(-c2cc3c(nn2)-c2ccccc2C3=O)c1	4.3	-11	-7	2233	.	.	-43
15	COc1cc(NC(=O)/C=C/c2ccccc2)c(C(=O)O)cc1OC	8.8	3	0	3362	10	10	-5

From no. 9 up to 12, copied from above:
nr	Compound	Sa RN4220 lethal	Sa ugtP lethal	BJeLR viability	Autofluor counter	Mtb hypoxia inh	Mtb hypoxia inh growth	PrP 5UTR inh
9	Cc1nn(CC(=O)NCC2CCCO2)c(=O)c2cc3ccccc3n12 (stereo unspecified)	6.2	11	9	4479	6	1	1
10	CCCCC(=O)Nc1nnc(S(=O)(=O)N2CCCCCC2)s1	5.3	-2	1	6147	10	0	-16
11	O=C(NN=Cc1cc(Cl)ccc1O)C(=O)Nc1ccccc1OC(F)(F)C(F)F	2.7	60	.	.	1	-2	.
12	CCCn1c(/N=C/c2c[nH]c3ccccc23)nc2ccccc21	.	.	-3	10135	.	.	-49

Complete entries from above. Order of screens: Sa RN4220 lethal | Sa ugtP lethal | BJeLR viability | Autofluor counter | Mtb hypoxia inh | Mtb hypoxia inh growth | PrP 5UTR inh
CC(SCc1ccccc1)C(=O)Nc1ccc(F)cc1 (stereo unspecified) in the list: 7.5 | 4 | 0 | 3330 | 10 | 4 | -19
CCCn1c(/N=C/c2c[nH]c3ccccc23)nc2ccccc21 in the list: . | . | -3 | 10135 | . | . | -49
O=C(CCN1CCOCC1)Nc1cc(C(=O)Nc2ccc(Cl)cc2)ccc1N1CC2CC(C1)c1cccc(=O)n1C2 (stereo unspecified) in the list: -2.8 | 3 | 5 | 5239 | -1 | 6 | -5
Cc1ccc(NC(=S)N2CCN(Cc3ccccc3)CC2)c(C)c1 in the list: 6.9 | 2 | -21 | 1982 | 15 | 4 | 5
O=C(NN=Cc1cc(Cl)ccc1O)C(=O)Nc1ccccc1OC(F)(F)C(F)F in the list: 2.7 | 60 | . | . | 1 | -2 | .

Following part.
nr	Compound	Sa RN4220 lethal	Sa ugtP lethal	BJeLR viability	Autofluor counter	Mtb hypoxia inh	Mtb hypoxia inh growth	PrP 5UTR inh
16	Cc1c(C(=O)O)sc2[nH]c(=O)n(Cc3ccccc3)c(=O)c12	0.4	9	-13	3702	0	0	-31
17	CCSc1nc(N)c2c3c(sc2n1)CCC3	4.1	-9	0	3384	.	.	-48
18	COCCN(C(=O)CCC(=O)Nc1cc(C)on1)C(C(=O)NC(C)(C)C)c1cccc(OC)c1OC (stereo unspecified)	2.3	10	-2	5740	-9	4	-13
19	CN(Cc1cnn(Cc2ccccc2)c1)C(=O)CN=C1NS(=O)(=O)c2ccccc21	4.2	7	.	4212	5	-1	-7
20	CCOc1cc(/C=N/NC(=O)NN(C)c2ncc(C(F)(F)F)cc2Cl)ccc1O	.	.	-4	3699	.	.	-4
21	CC(=NNC(=O)c1ccc(NS(=O)(=O)c2cccs2)cc1)c1ccccn1	7.4	-5	.	.	16	8	.
22	O=C(CN1C(=O)NC2(CCCCC2)C1=O)NC1CCCc2ccccc21 (stereo unspecified)	2.6	0	-10	9098	7	-9	-16
23	O=C(Nc1ccc(C(F)(F)F)cc1)C1=NN(C2CCS(=O)(=O)C2)C(=O)CC1 (stereo unspecified)	1.6	5	.	6755	8	-1	1
24	CC(CCc1ccccc1)NC(=O)c1nnc(Cc2ccc(Cl)cc2)o1 (stereo unspecified)	-7.0	12	6	6068	-7	4	0
25	Cc1ccc2[nH]c(CN3CCC(CO)(CC4CCCCO4)CC3)c(C)c2c1 (stereo unspecified)	-3.2	-9	15	2133	-4	2	-36
26	C=CCn1c(O)c(C(CC)=NCc2ccco2)c(=O)[nH]c1=O	5.2	10	-2	3841	15	9	-6
27	NC(=O)NC(=O)CSc1nnc(-c2ccc(Cl)cc2)n1CC1CCCO1 (stereo unspecified)	2.4	1	5	3488	4	3	0
28	Cc1c(C=Nn2cnnc2)c2ccccc2n1C	4.0	13	.	.	13	-9	.
29	COc1ccc(C(C(=O)NC(C)(C)C)N(C(=O)CCC(=O)Nc2cc(C)on2)c2c(C)cccc2C)cc1 (stereo unspecified)	3.0	6	-15	6104	1	17	-133
30	COc1ccc2nc3oc(C(=O)N4CC(C)CC(C)C4)cc3cc2c1 (stereo unspecified)	0.4	-1	4	5960	20	10	-33
31	COc1ccc(C(=O)O/N=C/c2ccc(S(=O)c3ccc(Cl)cc3)nc2)cc1 (stereo unspecified)	.	.	6	4811	.	.	-22
32	O=C(Nc1ccccc1N1CCOCC1)c1cc(F)cc(F)c1	2.7	3	-9	4198	12	2	-32
33	O=C(O)c1cccnc1SCC(=O)N1CCCCCC1	4.1	0	-2	11328	-5	2	0
34	Cc1nc2cc(NC(=O)CS(=O)(=O)c3ccc(F)cc3)ccc2s1	2.3	-2	4	5254	-1	2	-13
35	CC(=O)C1C(=O)C=C(c2ccco2)CC1c1ccccc1 (stereo unspecified)	5.4	8	-5	4049	.	.	-9
36	COc1ccc(-c2nn(-c3ccccc3)cc2C(=O)O)cc1	0.2	-4	-6	5693	-2	3	-25
37	O=C(c1ccc2c(c1)OCO2)N1CCN(C(=O)c2ccco2)CC1	3.6	8	-12	20526*	7	11	-24
38	O=C(Nc1cccc(Cl)c1)N(Cc1nc2ccccc2c(=O)[nH]1)C1CCCC1	13	-4	-2	3065	.	.	-9
39	Cc1cc([N+](=O)[O-])nn1CCCC(=O)NCc1ccc(F)cc1	4.1	14	-5	3668	7	16	10
40	O=C(Nc1ccccc1Br)c1c(F)cccc1Cl	-0.6	12	7	3462	17	12	-20
41	COc1ccc(S(=O)(=O)N2CCN(CCC(=O)Nc3ccccc3F)CC2)cc1	5.6	3	-4	11493	3	2	-27
42	Cc1ccc(C)c(S(=O)(=O)N2CCCCC2CCNC(=O)C(=O)NC2CCCC2)c1 (stereo unspecified)	3.3	10	11	4908	1	5	-10
43	COc1ccc(-c2noc(CN(C)C(=O)c3ccco3)n2)cc1	0.6	3	-6	3586	13	10	-17
44	Cc1ccc(CN2CCN(/N=C/c3ccc(C)s3)CC2)c(C)c1	.	.	-2	9369	.	.	-19
45	C#CCNC(=O)C1=CC(c2ccccc2)CC(OCc2ccc(CO)cc2)O1 (stereo unspecified)	2.0	0	.	.	17	6	.
46	N#Cc1ccsc1NC(=O)C1CC(=O)N(Cc2ccccc2)C1 (stereo unspecified)	4.6	3	10	4836	9	10	-22
47	O=C(NCS(=O)(=O)c1ccccc1)c1ccccc1	-2.4	1	5	4447	.	.	-12
48	COc1cc2c(c(OC)c1)C(=O)OC(C)CCCC(=O)CCCCC2 (stereo unspecified)	5.9	8	-7	6535	13	1	-10
49	O=C(CN1C(=O)CNC1=O)Nc1cc(Cl)cc(Cl)c1	-2.8	-38	.	2794	5	7	-13
50	COc1ccc(N(CC(=O)NC2CCCC2)C(=O)CS(=O)CC(=O)Nc2ccc3c(c2)OCO3)cc1 (stereo unspecified)	3.4	4	-17	3792	10	9	-2
51	O=C(CSc1nnc(CCCN2C(=O)c3cccc4cccc(c34)C2=O)n1-c1ccccc1)NCCCN1CCOCC1	-2.3	9	0	2357	8	5	-2
52	O=C(NCc1ccccc1F)C1CCN(C(=O)c2sccc2-n2cccc2)CC1	4.6	11	-1	2047	13	11	-8
53	O=c1[nH]c2c(s1)C(c1ccccc1)C1C3CCC(C3)C1S2 (stereo unspecified)	-3.2	-10	-11	3340	18	8	-22
54	CCOc1ccc(S(=O)(=O)N(CC)CC(=O)NCc2ccncc2)cc1C	1.4	11	8	3670	6	1	-13
55	O=C(NC1CC2CCC(C1)N2Cc1ccccc1)c1ccccc1Br (stereo unspecified)	2.0	6	2	3578	9	-6	-13
56	O=C(Cc1ccc(F)cc1)NC1CCSC1=O (stereo unspecified)	3.5	-4	-1	4169	0	10	-27
57	CCOC(=O)c1sc(N)nc1C(C)(C)C	2.2	10	-4	2365	.	.	-20
58	S=c1[nH]nc(-c2cccnc2)n1N=C/C=C/c1ccccc1	11	5	.	.	2	-5	.
59	Cc1nc(NCCc2ccccc2)c2oc3ccccc3c2n1	20	-18	-1	6093	.	.	-15
60	C/C(C=Nn1c(-c2ccc(Cl)cc2)n[nH]c1=S)=C\c1ccco1	2.4	-1	.	.	16	10	.
61	Cc1nn(C)c(=O)n1N(C)c1ncc(C(F)(F)F)cc1Cl	4.8	1	6	3735	11	3	-13
62	Cc1csc(=O)n1CCC(=O)OCc1nnc(-c2ccccc2Cl)o1	7.3	4	.	3463	14	10	-17
63	CON(C)S(=O)(=O)c1cccc(C(=O)Nc2ccc(S(=O)(=O)NC3=NCCCCC3)cc2)c1	1.6	10	.	4308	1	2	-6
64	Cc1ccc(C(=O)N/C(=C\c2ccco2)C(=O)NCCN2CCCCC2)cc1C	6.0	6	-1	3458	10	1	-7
65	O=C(CSc1ncccn1)NN=Cc1ccc2c(c1)OCO2	-0.4	-4	.	.	-1	-5	.
66	CCn1c(COc2ccc(=O)n(-c3ccccc3)n2)n[nH]c1=S	6.3	4	3	2084	18	4	-22
